CtBP-E1A inh: qHTS Assay for Inhibitors of the CtBP/E1A Interaction | AlphaScreen GST-E1A/His-CtBP binding, 1536-well; hits give low values; control for the full effect not named in the record | activity change, % (test concentration not listed) | CtBP / adenovirus E1A interaction (AlphaScreen) | AID 651724, 2012 | 340,000 compounds, 0.49% hits; in the data active means activity change below about -65%; inconclusive means about -30% to -65%; inactive means above about -30%; further: on the % scale 0 is the no-effect control and ±100 the full control effect
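AlphaScreen with 125 nM GST-E1A and 125 nM His-CtBP (5X stocks) in Tris pH 8.0, 300 mM NaCl, BSA, Tween 20, TCEP. Compounds preincubated 2 h at 37 deg C, then glutathione donor/nickel acceptor beads added for 1 h at 37 deg C in dark.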
gsp ag: qHTS for Agonist of gsp, the Etiologic Mutation Responsible for Fibrous Dysplasia/McCune-Albright Syndrome: qHTS; 340,000 compounds, 0.13% hits; gsp mutant cells, cAMP HTRF, 30 min; control for the full effect not named in the record; Potency, µM (highest dose often 76.9 µM), for inactives: at the top dose activation (cAMP increase), most hits filed as activators; active = well fitted activation curve with a large enough effect; inconclusive = small, poorly fitted or top-dose-only effect, or another doubt; inactive = no such curve, though single readings can be large or run the other way; cell line not stated here;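 further: phosphodiesterase inhibitor Ro 20-1724 added with compounds to block cAMP breakdown; potency means the concentration at half of the fitted maximal effect; nearly all actives have a fitted effect of over 60% in size; about a fifth of the inactives were tested at one dose only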
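Cells in DMEM/10% FBS with G418 were pretreated with compounds in DMSO plus […] (300 uM stock) for 30 min at 37C. cAMP was measured by HTRF (cAMP-d2 plus anti-cAMP antibody-K) after 30 min at room temperature.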
Sfp PPTase inh: qHTS Assay for Inhibitors of Bacillus subtilis Sfp phosphopantetheinyl transferase (PPTase); Potency, µM, for the others: max response, negative = inhibition, actives largely listed as inhibitors; Biochemical Sfp PPTase activity, qHTS; 310,000 compounds, 3.5% hits; AID 1490, 2009; active means well fitted inhibition curve with a large enough effect; inconclusive means small, poorly fitted or top-dose-only effect, or another doubt; inactive means no such curve, though single readings can be large or run the other way;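 further: the enzyme is Sfp with the accession as filed and its product quenches rhodamine fluorescence; potency means the concentration at half of the fitted maximal effect; 0% = enzyme reaction without inhibitor and -100% = no enzyme wells; top concentration of the series not given in the record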
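Fluorescence-quenching assay with 15 nM Sfp, 5 uM rhodamine-CoA and 12.5 uM BHQ-2-labelled ybbR peptide in pH 7.6 Hepes/MgCl2 buffer. Enzyme was pre-incubated with compound for 15 min at room temperature. Rate was taken from the 30-min fluorescence change (525/598 nm).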
ClpP mod: qHTS Assay for Activators of ClpP; 340,000 compounds, 1.9% hits; Potency, µM (series often up to 57.5 µM), for inactives: at the highest dose activity change, negative = active; purified B. subtilis ClpP, FRET peptide cleavage, 20 min; ATP-dependent Clp protease proteolytic subunit (Bacillus subtilis (strain 168)), P80244; active = well fitted falling curve with a large enough effect; inconclusive = small, poorly fitted or top-dose-only effect; inactive = no such curve, though single readings can be large or run the other way; further: potency means the concentration at half of the fitted maximal effect; the source files actives as falling curves though it sought activators and does not explain the sign; nearly all actives have a fitted effect of over 65% in size; many hits overshoot -100%
Target sequence (P80244 whole entry, looked up): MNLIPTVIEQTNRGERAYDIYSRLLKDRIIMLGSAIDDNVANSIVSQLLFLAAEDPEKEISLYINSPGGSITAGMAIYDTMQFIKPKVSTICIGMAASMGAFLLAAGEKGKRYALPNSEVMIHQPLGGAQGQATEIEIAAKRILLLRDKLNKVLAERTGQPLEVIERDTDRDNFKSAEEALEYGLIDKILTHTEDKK
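FRET quenching reversal measured ClpP activation: 10 microg/mL B. subtilis ClpP at pH 8 with the FRET-FV decapeptide, read at 430 nm after 320 nm excitation. The 20-min minus 0-min signal was scaled between DMSO/no-enzyme wells and ADEP (5.8 microM final).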
TRPV1 potentiator: HTS Assay for Compounds that Act as Potentiators of the Vanilloid Receptor 1 | Transient receptor potential cation channel subfamily V member 1 (Homo sapiens), Q8NER1 | AID 540277, 2011 | TRPV1-expressing cells, Fluo-8 calcium influx, capsaicin EC20 potentiation; host cell line not named in the record; control for the full effect not named in the record | potentiation, % at 8.33 µM | 320,000 compounds, 0.02% hits; active means potentiation above 80%; inconclusive means 30% to 80%; inactive means below 30%; further: 0% is about no effect
Target sequence (Q8NER1 whole entry, looked up): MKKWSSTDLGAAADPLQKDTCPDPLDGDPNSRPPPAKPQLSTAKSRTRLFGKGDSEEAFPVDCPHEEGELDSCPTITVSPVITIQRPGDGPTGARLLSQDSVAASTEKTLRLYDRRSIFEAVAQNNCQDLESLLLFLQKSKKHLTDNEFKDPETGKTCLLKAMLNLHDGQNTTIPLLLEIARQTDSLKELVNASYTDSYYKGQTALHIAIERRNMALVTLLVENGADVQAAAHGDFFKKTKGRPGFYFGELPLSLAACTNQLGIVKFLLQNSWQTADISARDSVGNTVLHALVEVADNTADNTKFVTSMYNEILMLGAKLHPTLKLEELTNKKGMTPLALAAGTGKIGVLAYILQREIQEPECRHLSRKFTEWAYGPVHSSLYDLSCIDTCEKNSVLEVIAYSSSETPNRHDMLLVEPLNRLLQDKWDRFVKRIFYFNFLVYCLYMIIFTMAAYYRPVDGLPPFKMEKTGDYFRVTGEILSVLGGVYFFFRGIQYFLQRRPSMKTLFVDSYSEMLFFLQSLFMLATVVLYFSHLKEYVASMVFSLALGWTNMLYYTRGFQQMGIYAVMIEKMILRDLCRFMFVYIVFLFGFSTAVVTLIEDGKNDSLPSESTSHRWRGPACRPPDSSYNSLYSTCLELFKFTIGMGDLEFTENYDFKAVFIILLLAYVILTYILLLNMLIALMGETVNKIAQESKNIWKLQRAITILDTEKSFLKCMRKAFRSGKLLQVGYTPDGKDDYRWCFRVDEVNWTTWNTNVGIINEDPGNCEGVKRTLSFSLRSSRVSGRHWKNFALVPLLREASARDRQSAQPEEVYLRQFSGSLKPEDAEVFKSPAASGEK
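Fluo-8 calcium influx in TRPV1-expressing cells, kinetic read (ex 480/em 520 nm). Compound added and read 3 min for agonist activity, followed by capsaicin at EC20 final and 2 min further read for enhancement.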
gsp antagonist: qHTS for Antagonists of gsp, the Etiologic Mutation Responsible for Fibrous Dysplasia/McCune-Albright Syndrome: qHTS. gsp-mutant cells, cAMP HTRF, 30 min; control for the full effect not named in the record. Potency, µM (top dose mostly 76.9 µM), for the others: at the top dose activity change, negative = inhibition, hits mostly inhibitors. 340,000 compounds, 0.4% hits. AID 624288, 2012; active = falling curve of any shape with a large fitted effect; inconclusive = falling curve, mostly with a smaller effect; inactive = flat or rising curve; cell line not stated here;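 further: intracellular cAMP measured with PDE inhibitor Ro 20-1724 present during compound exposure; potency means the concentration at half of the fitted maximal effect; on the % scale 0 is the no-effect control and ±100 the full control effect; nearly all actives have a fitted effect of over 65% in size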
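G418-selected cells were plated in DMEM/10% FBS for 16-24 h at 37C, then treated with compounds plus the PDE inhibitor […] (300 uM solution added) for 30 min at 37C. Intracellular cAMP was measured by HTRF after 30 min lysis at room temperature.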
Menin MLL FP FL: qHTS Assay for Inhibitors Targeting the Menin-MLL Interaction in MLL Related Leukemias: Competition With Fluorescein Labeled MLL-derived Peptide. Fluorescence polarization, fluorescein-MLL peptide displacement from menin. FP activity change, % at 61.4 µM. 290,000 tested, under 10 active; inconclusive = falling polarisation curve, or a change in total fluorescence; inactive = total fluorescence flat and polarisation flat or rising; no compound was filed as active; the % refers to the polarisation; negative = inhibition;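 further: % of control where 0% means no effect; inhibitors lower the polarisation; unlabelled MLL peptide was the positive control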
* hit, by the source's call; ? = inconclusive; . = no result given; [ ] = remark or other dose.

SMILES | CtBP-E1A inh | gsp ag | Sfp PPTase inh | ClpP mod | TRPV1 potentiator | gsp antagonist | Menin MLL FP FL
Cc1ccc(NC(=O)CCN2CCCCC2)cc1 | . | 6% | 19% | 1.6% | -11 | 11% | -3.5
CCC(=O)Nc1cccc(-c2nnc(SCC(=O)c3ccccc3)n2C)c1 | -8 | 4% | 79µM* | -5.5% | -5 | -4% | 2.3
O=C(COc1ccc(Cl)cc1Cl)NC1CCSC1=O (stereo not given) | 5 | -15% | -6% | -4.9% | -21 | 5%[15.4 µM] | -3.1
CC1CCCC(C)N1C(=O)Cn1nnc(-c2ccc([N+](=O)[O-])cc2)n1 (stereo not given) | 0 | -9% | 22% | 0.3% | -6 | -4% | -1.1
COC(=O)c1cnc(N)s1 | -15 | -30%[inhibitor] | . | . | . | 5% | .
O=C(CSc1n[nH]c(-c2ccccn2)n1)Nc1ccccc1F | 1 | 10%[15.4 µM] | ? | . | 3 | -7% | 3.4
CCC1C/C(=C/c2cccs2)C(=O)/C(=C/c2cccs2)C1 (stereo not given) | -10 | -8% | -6% | -1.2% | 8 | -26% | 6.0
CN(C(=O)COC(=O)Cc1ccc(Cl)cc1)C1CCCCC1 | -1 | -10%[15.4 µM] | . | -1.5% | . | 8% | .
CC(C)(C)C(=O)NC(=S)NNC(=O)c1ccc(Cl)cc1Cl | -8 | -1%[15.4 µM] | 5% | . | -12 | -5% | 1.2
Cc1cc(C(=O)NNC(=S)NCc2ccccc2)cs1 | 29 | 2% | 13% | 1.5% | 2 | -5% | -1.9
CCCCCCC(C)n1cc(C(C)=O)c(=O)n(C)c1=O (stereo not given) | 0 | -2%[15.4 µM] | 3% | . | -8 | 2% | 3.7
CC(C)Cc1ccc(S(=O)(=O)Nc2ccccn2)cc1 | 3 | -3% | 18% | -18% | 10 | 5% | 1.3
CCOC(=O)C(=CNNc1ccsc1C(=O)OC)C(=O)OCC | -23 | 39% | -19% | . | -3 | -7% | 3.2
NC(=O)C[C@@H]1NC(=O)[C@H](CCC(=O)O)NC(=O)c2cc([N+](=O)[O-])cc(I)c2OCC[C@@H](C(N)=O)NC1=O | 6 | . | -12% | 1.2% | 6 | 4% | -1.1
Cc1[nH]c(=O)[nH]c(=O)c1S(=O)(=O)Nc1ccc(Br)cc1F | 9 | ? | 26% | -3.0% | -13 | 1% | 1.1
CC1CCC(NC(=O)CN2C(=O)C3CC=CCC3C2=O)CC1 (stereo not given) | . | 24% | . | 2.5% | 30 | 21% | .
CCCc1nc(SCC(=O)NCc2ccco2)c2c(=O)n(C)c(=O)n(C)c2n1 | -7 | -14% | 0% | -2.0% | 6 | 3% | 3.7
O=[N+]([O-])c1ccc(N(CC(O)CN2CCCCC2)S(=O)(=O)c2ccccc2)cc1 (stereo not given) | -1 | 1% | 23% | . | 0 | 1% | 2.1
COc1ccc(CCNc2c(N)n(Cc3ccccc3)c(=O)[nH]c2=O)cc1OC | -8 | -17% | -30% | -0.2% | 4 | -3%[15.4 µM] | -8.7
CN(C)S(=O)(=O)N(CC(=O)N1CCN(c2ccccc2)CC1)c1ccccc1 | -1 | -1%[15.4 µM] | -6% | . | 2 | 10% | -1.7
COCC(C)n1c(SCC(=O)NC2CCCCC2C)nc2ccccc2c1=O (stereo not given) | -1 | 7%[15.4 µM] | . | -0.9% | . | 6% | .
O=C(CCCc1ccccc1)N1CCc2ccccc21 | 4 | -32%[inhibitor] | -24% | -1.1% | -6 | -4% | 1.8
CCOc1ccc(NC(=O)C2CCN(S(=O)(=O)c3cccnc3)CC2)cc1 | 9 | -25% | -16% | 0.8% | -1 | -2% | 0.5
NC(=O)COC(=O)c1cccc(NS(=O)(=O)/C=C/c2ccccc2)c1 | 2 | -27% | 16% | -0.7% | -7 | 7% | ?

8 structures from above, arranged by count of non-hydrogen atoms, falling.
SMILES | CtBP-E1A inh | gsp ag | Sfp PPTase inh | ClpP mod | TRPV1 potentiator | gsp antagonist | Menin MLL FP FL
COc1ccc(CCNc2c(N)n(Cc3ccccc3)c(=O)[nH]c2=O)cc1OC | -8 | -17% | -30% | -0.2% | 4 | -3%[15.4 µM] | -8.7
CCCc1nc(SCC(=O)NCc2ccco2)c2c(=O)n(C)c(=O)n(C)c2n1 | -7 | -14% | 0% | -2.0% | 6 | 3% | 3.7
CCOc1ccc(NC(=O)C2CCN(S(=O)(=O)c3cccnc3)CC2)cc1 | 9 | -25% | -16% | 0.8% | -1 | -2% | 0.5
NC(=O)COC(=O)c1cccc(NS(=O)(=O)/C=C/c2ccccc2)c1 | 2 | -27% | 16% | -0.7% | -7 | 7% | ?
CCOC(=O)C(=CNNc1ccsc1C(=O)OC)C(=O)OCC | -23 | 39% | -19% | . | -3 | -7% | 3.2
CC1CCC(NC(=O)CN2C(=O)C3CC=CCC3C2=O)CC1 (stereo not given) | . | 24% | . | 2.5% | 30 | 21% | .
Cc1[nH]c(=O)[nH]c(=O)c1S(=O)(=O)Nc1ccc(Br)cc1F | 9 | ? | 26% | -3.0% | -13 | 1% | 1.1
O=C(CCCc1ccccc1)N1CCc2ccccc21 | 4 | -32%[inhibitor] | -24% | -1.1% | -6 | -4% | 1.8

(further entries)
SMILES | CtBP-E1A inh | gsp ag | Sfp PPTase inh | ClpP mod | TRPV1 potentiator | gsp antagonist | Menin MLL FP FL
COc1ccc([C@H]2C[C@H](O)[C@@H](n3cc(COC(=O)c4ccccc4)nn3)CN2C(=O)C2CCCCC2)cc1 | 2 | ? | . | -0.2% | . | . | .
CCOc1ccc(NC(=O)c2cccc(OC(=S)N3CCC(C)CC3)c2)cc1 | -7 | 5% | 13% | -9.1% | . | -19% | .
Cn1cnnc1SCC(=O)Nc1sc2c(c1C#N)CCCCC2 | 2 | -2% | 50µM* | 0.7% | -5 | 2% | ?
CCOC(=O)c1c(C)[nH]c(C(=O)CSc2ccccc2)c1C | -1 | -50%[inhibitor] | -3% | 1.7% | 8 | 2% | -0.9
O=C(NCc1cccnc1)c1cnc2n(c1=O)CCS2 | 4 | 12% | 4% | -14% | -2 | -1% | -0.5
Cc1cc(=O)[nH]c(SCC(=O)C23CC4CC(CC(C4)C2)C3)c1C#N | -5 | 19% | -66% | -4.4% | -10 | 35µM* | -0.5
CCNC(=S)N1CCC(c2nc3cc(C)c(C)cc3[nH]2)CC1 | -1 | 33% | 1% | . | 3 | -7% | 1.5
Cc1ccc(-n2c(C)c(C)c3c(NCCO)ncnc32)cc1 | 0 | 23% | 5% | . | 1 | 7% | 0.3
CCCN=C(Nc1ccc(Cl)cc1)c1cccnc1 | -5 | 21% | 10% | -0.3% | -3 | -10% | -0.6
Cc1cc(SC2CCOC2=O)nc2ccccc12 (stereo not given) | -4 | ? | -9% | 0.4% | 3 | 5% | -1.4
COc1ccc(-c2cc(C(F)F)n3ncc(C(=O)N4CCCc5ccccc54)c3n2)cc1 | 4 | ? | 20% | . | 0 | -2% | -3.9
CCc1ccc(NS(=O)(=O)c2cccs2)cc1 | -5 | -61%[inhibitor] | 5% | -4.0% | -1 | -1% | 2.4
O=C1c2ccccc2C(=O)N1c1ncccn1 | -1 | 0% | 11% | -2.7% | 1 | -13% | 0.3
Cc1cc(C)c(C)c(S(=O)(=O)N2CCC(C(=O)N(C)Cc3nc4ccccc4c(=O)[nH]3)CC2)c1C | ? | ? | . | -2.3% | . | -9% | .
CC(=O)Nc1cc2c(cc1[N+](=O)[O-])-c1ccccc1C2=NO | -20 | -80%[inhibitor] | . | 2.5% | . | 1% | .
CC(=O)N[C@H](Cc1c[nH]c2ccccc12)C(=O)O | -3 | . | . | -3.3% | . | 5% | .
COc1ccccc1NC(=O)Cn1c(CCC(=O)O)ccc1-c1ccc(C)cc1 | -1 | 9% | -9% | . | -4 | -21% | -3.3
Oc1ccc(-c2onc(C(F)(F)F)c2-c2cscn2)c(O)c1 | 0 | -9% | 15% | 0.9% | 6 | -1% | -1.9
Cc1ccc(/C=C(\C#N)C(=O)NCc2ccco2)o1 | 5 | ? | 50µM* | 0.5% | -4 | -14% | ?
Cc1ccc(-n2c(=O)c(C#N)cc3c(=O)n4ccccc4nc32)cc1 | -2 | 11%[15.4 µM] | 15% | ? | -9 | 7% | 4.5
COc1ccc(S(=O)(=O)N2CCOC2CNC(=O)C(=O)NCc2ccc3c(c2)OCO3)cc1C (stereo not given) | -1 | -15% | . | 1.5% | . | . | .
O=C(CC(c1ccccc1)c1ccccc1)NCC(O)c1ccc([N+](=O)[O-])cc1 (stereo not given) | -7 | 3% | -1% | . | 6 | -6% | -8.2
Nc1c(S(=O)(=O)c2ccccc2)c2nc3ccccc3nc2n1/N=C/c1ccco1 | ? | -4% | -9% | 11µM* | 13 | -18% | ?
CC(C)CNC(=O)[C@H]1N2C(=O)c3ccccc3C2SC1(C)C (stereo not given in full) | 0 | 6%[15.4 µM] | -1% | 28µM* | -9 | 0% | -2.9
Cc1ccc(NS(=O)(=O)c2ccccc2)c([N+](=O)[O-])c1 | 1 | ? | . | . | . | 4% | .
COc1cccc(CNc2nc3nc(C)c(Cl)c(C)n3n2)c1 | 0 | 22% | 3% | 32µM* | 6 | 13% | -0.5
CC(=NNC(=O)c1ccncc1)c1ccc(O)cc1O | -76* | -39%[inhibitor] | . | . | . | -4% | .
O=C(N/C(=C/c1cccc([N+](=O)[O-])c1)C(=O)N1CCOCC1)c1ccc(Br)cc1 | -1 | -94%[inhibitor] | 9% | 1.7% | 4 | -28% | 3.3

Compound activity as filed in PubChem BioAssay.
